# Vaccinia pol inh: vaccinia E9 polymerase processive synthesis inhibitors, primary screen, biochemical, absorbance. in vitro processive DNA synthesis, absorbance read-out; active compounds read low; some inactives read as strong as hits. normalized absorbance, % (test concentration not listed). 46,000 tested, 0.94% active. AID 493162, 2011;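 active = replicate mean up to 90% and picked by the depositor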;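 note: 100% = median of the test wells of a plate; 100 nL library stock went into each well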
# * marks the source's active call; other numbers are inactive results. A portion of the library; the hit share may differ from the screen's.
SMILES,Vaccinia pol inh
O=C(Nc1ccccc1Cl)C1(c2ccccc2)CCOCC1,97
NNC(=O)c1cccc(COc2ccc(C3SCCS3)cc2)c1,98
CCCc1ccc(OCCNC(=O)c2ccco2)cc1,97
CCCC(=O)Nn1cnc2c(c1=O)C1(CCCC1)Cc1ccccc1-2,98
CC(C)CCNC(=O)C1CCN(c2nnc(-n3cccc3)s2)CC1,105
Cn1c(CNc2ccc(F)cc2)nc2ccccc21,101
CCOC(=O)c1c(C)nn(C)c1C,99
S=c1[nH]c(-c2ccccc2)c(-c2ccccc2)o1,62*
Cc1cc(N2CCCC2)nc2ccc(NC(=S)NCCN3CCc4ccccc4C3)cc12,86
COc1ccc(C(=O)CSc2ncccn2)cc1,103
CC(CCc1ccccc1)NC(=O)CN1C(=O)c2ccccc2S1(=O)=O (stereo not drawn),97
CC(C)(C)S(=O)(=O)c1cnc(-c2cnccn2)nc1N,96
NNc1ccc(Cl)c(C(=O)O)c1,93
CCn1cnc2cc(NS(=O)(=O)c3ccc(C)cc3)ccc21,100
COc1cc(/C=C2\NC(=S)N(C)C2=O)ccc1OCc1ccccc1Cl,100
CN(C=O)CP(=O)(O)CCc1ccccc1,100
CCOC(=O)C1=C(C)NC(SCC(N)=O)=C(C#N)C1c1ccccc1 (stereo not drawn),100
CCc1nc(-c2ccccc2)c2ccccn12,100
NC(N)=NS(=O)(=O)c1ccc(NC(=O)/C=C/C(=O)O)cc1,100
O=C(COC(=O)c1ccccc1NCc1ccco1)c1ccc(Cl)cc1,104
CCNCC1Cc2ccccc2O1 (stereo not drawn),110
COc1ccccc1C(=O)Nc1ccc(-c2csc(C)n2)cc1,100
CC(=O)Nc1ccc(S(=O)(=O)NCc2ccc(C(=O)NC3CCCC(C)C3C)cc2)cc1 (stereo not drawn),103
CC(C)(C)NC(=O)NCc1ccncc1,98
Cc1ccc(C(=O)N2CCN(C(=O)c3ccccc3)C2)cc1,100

# Later entries
SMILES,Vaccinia pol inh
Cc1nc(N)nc(C)c1Cc1ccccc1,96
CC1CC(C)CN(S(=O)(=O)c2ccc3[nH]cc(C(=O)N4CCC5(CC4)OCCO5)c(=O)c3c2)C1 (stereo not drawn),111
CSc1cccc(NS(=O)(=O)c2ccc3c(c2)n(C)c(=O)c(=O)n3C)c1,97
COc1ccc(N(C(=O)c2ccccc2)S(=O)(=O)c2cccc3cccnc23)cc1,106
O=C(CSc1nc2ccc(N=Cc3ccccc3O)cc2s1)NCCOc1ccccc1,100
CC(C)(C)NCC(C)(O)c1ccc(Br)cc1 (stereo not drawn),101
C[n+]1ccc(/C=C/c2ccccc2F)c2ccccc21,100
CN(C)C(=S)SCC(=O)Nc1ccccc1,105
c1ccc(Nc2ncnc3sc4c(c23)CCCC4)cc1,100
CC1CCC(NC(=O)C2CCCN2S(=O)(=O)c2ccc3nc(-c4ccccc4)[nH]c3c2)CC1 (stereo not drawn),97
CSc1nn2ccc(-c3cccc(C(F)(F)F)c3)nc2c1C#N,83
CCN1/C(=C(/O)c2ccccc2)C(=O)c2ccccc2S1(=O)=O,100
COc1ccccc1C(=O)NC1CCS(=O)(=O)C1 (stereo not drawn),101
CC(C)(C)c1ccc(S(=O)(=O)Nc2ccc3[nH]c(=O)[nH]c3c2)cc1,72
Cc1cc(OC(=O)N(C)C)nc(SCc2c(Cl)cccc2Cl)n1,102
OC(CN1CC=C(c2ccccc2)CC1)C(F)(F)F (stereo not drawn),112
CC1(C)CC(=O)c2cc(NC(=O)c3ccccc3)c(=O)oc2C1,93
CCOC(=O)c1ccc(NC(=O)CCn2c(=O)sc3ccccc32)cc1,99
O=C(CSc1nccn1-c1ccccc1)Nc1nccs1,96
O=C(NCCc1ccc(O)cc1)c1ccc2ccccc2c1,109
COc1ccc(CNC(=O)Cn2c(=S)[nH]c3ccccc3c2=O)cc1,100
COC(=O)Cn1cc(C#N)c2ccccc21,100
CC(c1ccccc1)C1C(C#N)=C(N)Oc2c1c(=O)oc1ccccc21 (stereo not drawn),99
NC(=O)c1cnn2c(-c3ccc(Cl)cc3Cl)ccnc12,77
CN(C(=O)c1cccc(N2C(=O)C3C4C=CC(C4)C3C2=O)c1)C1CCCCC1 (stereo not drawn),101

# New compounds follow.
SMILES,Vaccinia pol inh
CCc1ccc(NC(=O)Cn2ncc3c(=O)oc4ccccc4c32)cc1,98
CSc1sc(C(=O)NN)c2c1C=CCC2,93
C=CCN(CC=C)C(=S)Nc1ccc2nsnc2c1,99
CCOc1ccc(N2C(=O)CCC2=O)cc1,101
COC(=O)c1ccc(NCC(O)Cn2nnnc2-c2ccccc2)cc1 (stereo not drawn),100
c1ccc(OCc2cc(-c3ccccc3)n[nH]2)cc1,105
CC1(C)C2CCC1(C)C(NC(=O)CCC(=O)O)C2 (stereo not drawn),94
COc1ccc(CN(C)CCc2ccc(OC)c(OC)c2)cc1,88
COC(=O)C12CC3CC(CC(N)(C3)C1)C2,98
ClCc1csc(Nc2ccccc2)n1,94
C=CCc1ccccc1OCc1cccc(C(=O)O)c1,94
CC(=O)Nc1ccc(-n2nncc2-c2ccccc2)cc1,98
COc1ccc(N2CCN(C(=O)CCCC(=O)c3ccccc3)CC2)cc1,98
CC1CCC(C(C)C)C(OCC(O)CN2CCN(c3ccccc3)CC2)C1 (stereo not drawn),102
CC(C)c1nc2cc3sc(C(C)C)nc3cc2s1,102
Brc1ccc(-c2cn3ccsc3n2)cc1,99
COc1ccc2ccccc2c1C=C1C(=O)OC2(CCCC2)OC1=O,99
CC1CC2(C)Oc3ccccc3C3OCC1(CO)C(C)C32 (stereo not drawn),85
Cc1cc2ccccc2c(=O)n1CC(=O)N1CCCCC1,109
CCc1ccc(NC(=O)Cc2cccs2)cc1,99
CNCC(O)COc1cccc(OC)c1 (stereo not drawn),102
CCOc1ccc(C(=O)N2CCCCC2)cc1,99
CCc1ccc(NC(=O)c2cnc(SC)nc2C)cc1,101
CCCC(=O)Nc1ccc(Br)cc1,99
COc1cc(/C=N/S(=O)(=O)CCc2ccccc2)ccc1O,91

# Six compounds out of the list, ordered by length of the SMILES, ascending.
SMILES,Vaccinia pol inh
CNCC(O)COc1cccc(OC)c1 (stereo not drawn),102
Brc1ccc(-c2cn3ccsc3n2)cc1,99
CC(C)c1nc2cc3sc(C(C)C)nc3cc2s1,102
CCc1ccc(NC(=O)c2cnc(SC)nc2C)cc1,101
c1ccc(OCc2cc(-c3ccccc3)n[nH]2)cc1,105
CC1CC2(C)Oc3ccccc3C3OCC1(CO)C(C)C32 (stereo not drawn),85

# (listing goes on)
SMILES,Vaccinia pol inh
CCCOc1cccc2c1CCN(Cc1ccccc1)C2=O,100
CCn1c(C=Nc2ccccc2)nc2ccccc21,100
Cc1cc(=O)oc2cc(OCC3CC(c4ccccc4)=NO3)ccc12 (stereo not drawn),88
O=C(COC(=O)c1ccc(F)cc1)NCc1ccc(F)cc1,90
Clc1ccc(CSC2=NCCCN2)cc1Cl,94
NCC(O)c1ccc2ccccc2c1 (stereo not drawn),93
C=CCC1(O)CC(c2ccccc2)NC(c2ccccc2)C1CC (stereo not drawn),101
COc1ccccc1-n1cnc2cc(C(=O)NC3CCCC3)ccc21,107
NCCSC(=S)NC1CCCCCCC1,99
CC(C)c1nc2nc(N)nc(N)c2nc1C(C)C,100
OC1COC(NCCc2ccccc2)C(O)C1O (stereo not drawn),100
CC1(C)c2ccccc2N2CC(=O)NC21/C=C/c1ccc(F)cc1 (stereo not drawn),97
CC(C)CCNS(=O)(=O)c1ccc(-c2ccc(S(=O)(=O)NCCC(C)C)cc2)cc1,103
Cc1ccc(NC(=O)c2cc(C(C)C)[nH]n2)cc1,102
O=C(NCc1ccccc1)N1CCSc2ccccc21,97
CCN(CC)C(=O)C1(P(=O)(c2ccccc2)c2ccccc2)CC1,100
CC(=O)OCCCn1c(C)nc2cc(Cl)ccc21,102
COc1ccc(-c2cc(C(F)(F)F)nc(N3CCCCCC3)n2)cc1,95
O=C(COC(=O)C1CC2C=CC1C2)Nc1ccccc1 (stereo not drawn),100
O=C1/C(=C/c2cccs2)SC(=S)N1c1cc(Cl)cc(Cl)c1,109
COc1ccc(Br)cc1COC(=O)C1c2ccccc2Oc2ccccc21,94
CCCC[C@@H](C=O)NC(=O)[C@H](CC(C)C)NC(=O)[C@H](CC(C)C)NC(C)=O,99
Cc1ccc(C(=O)c2coc3ccc(O)cc23)o1,100
Cc1cc(=O)oc(C)c1C(=O)NC1CCCc2ccccc21 (stereo not drawn),95
Cc1cc2ccccc2c(=O)n1CC(=O)Nc1ccc(C(C)C)cc1,108

# Continued.
SMILES,Vaccinia pol inh
Cc1ccc(S(=O)(=O)N2CCCC(C(=O)N(C)c3ccccc3)C2)cc1 (stereo not drawn),101
Cc1ccccc1NC(NC(=O)c1ccco1)C(=O)c1ccccc1 (stereo not drawn),100
CC(=O)Nc1cc(C)nn1-c1nc2ccccc2n1C,104
O=C(c1cccs1)N(Cc1ccccc1)c1ccccn1,101
Cc1ccc(-n2cnc3scc(-c4cccs4)c3c2=O)cc1,96
CSc1ccc(Cl)c(C(=O)N2CCc3ccccc32)c1,92
Cc1cc(NC(=O)c2ccc(C(=O)c3ccccc3)cc2)no1,96
Cc1cccc(-n2ncc3c(N(C)Cc4ccccc4)ncnc32)c1,101
Cc1ccc(S(=O)(=O)NC(=O)OCC2CN(Cc3ccccc3)CCO2)cc1 (stereo not drawn),109
O=C(/C(=N\O)n1cncn1)c1ccccc1Cl,100
O=C(O)COc1cccc(C(F)(F)F)c1,97
O=c1oc2ccc(Br)cc2cc1-c1cn2ccccc2n1,95
CC1CCCC(C)N1C(=O)COC(=O)c1ccc2ccccc2n1 (stereo not drawn),89
CCC(NC(=O)Nc1cc(C)cc(C)c1)c1c(-n2cccc2)sc2c1CCN(CC)C2 (stereo not drawn),97
CC(=O)C1CCC2C3CC=C4CC(OS(=O)(=O)O)CC[C@]4(C)C3CC[C@]12C (stereo partly drawn),99
COC(=O)C1=CN(CC23CC4CC(CC(C4)C2)C3)C=C(C(=O)OC)C1c1ccc(F)cc1,100
Cc1nnc(Oc2ccc(Cl)cc2Cl)c2ccccc12,106
O=C(Nc1sc2c(c1C(=O)O)CCCC2)c1ccc(Br)cc1,100
CCn1c2ccccc2c2cc(N)ccc21,92
O=C1N/C(=C/c2ccccc2)C(=O)N1c1cccc(Cl)c1,100
COC(=O)c1ccc(C2N=C(c3cccc(OC)c3)CC(c3ccccc3O)N2)cc1 (stereo not drawn),99
CCOC(=O)N1CCN(C(=O)c2cccn3c(=O)c4cc5ccccc5cc4nc23)CC1,97
COc1cccc(NC(=O)Cc2ccccc2)c1,94
CC(=O)Nc1ccccc1OCC(N)=O,112
CN1CCN(c2ccc(CNS(=O)(=O)c3cccc4nonc34)cc2)CC1,99

# Remaining list, next part:
SMILES,Vaccinia pol inh
O=c1c2ccccc2nc(SCc2ccc(Cl)cc2)n1CC1COc2ccccc2O1 (stereo not drawn),102
COc1ccccc1NC(=O)CSc1cc(C(F)(F)F)cc(C(F)(F)F)c1,104
COC(=O)C1=CN(C2CC2)C=C(C(=O)OC)C1c1ccccc1,100
O=C(C[n+]1cc(-c2ccccc2)n2c1CCC2)c1ccccc1,100
O=C(NC1C2CC3CC(C2)CC1C3)C1CCCCC1 (stereo not drawn),88
Cn1ncc(Br)c1-c1nc2ccccc2[nH]1,100
COC(=O)C(C)Sc1nc2c([nH]c3ccccc32)c(=O)n1-c1cccc(Cl)c1 (stereo not drawn),101
COc1cccc(C=Nc2cccc(C(=O)O)c2C)c1O,94
CC1CCc2c(sc(NC(=O)CN(Cc3ccccc3)Cc3ccccc3)c2C#N)C1 (stereo not drawn),105
Fc1cccc(Cl)c1CSc1ccccc1C1=NCCCN1,94
CCOC(=O)c1sc(=S)n(-c2ccc(OC)c(Cl)c2)c1N,98
Cc1ccccc1NC(=O)CSC1=C(C#N)C(c2ccco2)C2=C(CC(C)(C)CC2=O)N1 (stereo not drawn),94
COc1cccc(NC(=S)NC(Cc2ccccc2)c2ccccc2)c1 (stereo not drawn),85
CN1C2CCC1CC(NC(=O)CSc1ccc(F)cc1F)C2 (stereo not drawn),91
CSc1ncc(Cl)c(C(=O)Nc2cccc3ccccc23)n1,103
CC(C)COP(=O)(c1ccc(N(C)C)cc1)C(O)c1ccc(N(C)C)cc1 (stereo not drawn),99

# Gathered by group, those above with four or more nitrogen atoms
SMILES,Vaccinia pol inh
CC(C)CCNC(=O)C1CCN(c2nnc(-n3cccc3)s2)CC1,105
Cc1cc(N2CCCC2)nc2ccc(NC(=S)NCCN3CCc4ccccc4C3)cc12,86
CC(C)(C)S(=O)(=O)c1cnc(-c2cnccn2)nc1N,96
NC(N)=NS(=O)(=O)c1ccc(NC(=O)/C=C/C(=O)O)cc1,100
CC1CCC(NC(=O)C2CCCN2S(=O)(=O)c2ccc3nc(-c4ccccc4)[nH]c3c2)CC1 (stereo not drawn),97
CSc1nn2ccc(-c3cccc(C(F)(F)F)c3)nc2c1C#N,83
O=C(CSc1nccn1-c1ccccc1)Nc1nccs1,96
NC(=O)c1cnn2c(-c3ccc(Cl)cc3Cl)ccnc12,77
C=CCN(CC=C)C(=S)Nc1ccc2nsnc2c1,99
COC(=O)c1ccc(NCC(O)Cn2nnnc2-c2ccccc2)cc1 (stereo not drawn),100
CC(=O)Nc1ccc(-n2nncc2-c2ccccc2)cc1,98
CC(C)c1nc2nc(N)nc(N)c2nc1C(C)C,100
CC(=O)Nc1cc(C)nn1-c1nc2ccccc2n1C,104
Cc1cccc(-n2ncc3c(N(C)Cc4ccccc4)ncnc32)c1,101
O=C(/C(=N\O)n1cncn1)c1ccccc1Cl,100
CCC(NC(=O)Nc1cc(C)cc(C)c1)c1c(-n2cccc2)sc2c1CCN(CC)C2 (stereo not drawn),97
CCOC(=O)N1CCN(C(=O)c2cccn3c(=O)c4cc5ccccc5cc4nc23)CC1,97
CN1CCN(c2ccc(CNS(=O)(=O)c3cccc4nonc34)cc2)CC1,99
Cn1ncc(Br)c1-c1nc2ccccc2[nH]1,100

# Bioassay records (PubChem BioAssay)
